FEN1 inh = inhibitors of human flap endonuclease 1; 390,000 compounds, 0.35% hits; Recombinant FEN1 flap cleavage, fluorescence, 15 min; Potency, µM (titrated, usually from 114 µM), inactives show top-dose activity change, negative = inhibition, hits mostly inhibitors; P39748; note: nearly all actives have a fitted effect of over 65% in size
Target sequence (P39748 whole entry, looked up): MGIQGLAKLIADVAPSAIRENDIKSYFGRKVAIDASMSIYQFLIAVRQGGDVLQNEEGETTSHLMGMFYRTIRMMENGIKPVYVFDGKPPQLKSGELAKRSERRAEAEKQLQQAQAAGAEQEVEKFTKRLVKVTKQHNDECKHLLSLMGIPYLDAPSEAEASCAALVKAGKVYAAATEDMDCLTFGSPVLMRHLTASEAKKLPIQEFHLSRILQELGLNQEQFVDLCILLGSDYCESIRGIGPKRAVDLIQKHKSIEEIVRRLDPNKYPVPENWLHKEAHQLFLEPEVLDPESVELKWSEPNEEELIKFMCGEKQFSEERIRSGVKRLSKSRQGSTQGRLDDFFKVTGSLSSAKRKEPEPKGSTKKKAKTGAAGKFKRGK
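Compounds are tested as a concentration series against 10 nM FEN1; after a 15 min room-temperature preincubation, 50 nM substrate starts cleavage, with plate reads at 0 and 15 min. Normalized responses are fitted by a Hill equation.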
N370S GC mod = N370S glucocerebrosidase modulation, Gaucher chaperone candidate | P04062 | N370S GC spleen homogenate, 4MU-glucoside fluorescence | Potency, µM (top dose mostly 59.4 µM), for inactives: at the top dose activity change, negative = inhibition, usual class: inhibitors | 330,000 compounds, 0.092% hits | AID 2101;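 note: 0% = full enzyme activity and -100% = no enzyme basal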
An asterisk follows results filed as active; ? = inconclusive; . = no result given; & = joins results of further samples; [ ] = remark or other dose. Calls come from the whole dose curve; as a rule, active = well fitted curve in the direction sought with a large enough effect; inconclusive = small, poorly fitted or top-dose-only effect, or another doubt; inactive = no such curve, though single readings can be large; an effect the other way counts as inactive or inconclusive. Unless noted, % is set by controls: 0 for no effect and ±100 for the full control effect; potency is the fitted concentration of half-maximal effect. An excerpt, and most or all hits are left out here.

SMILES | FEN1 inh | N370S GC mod
COc1ccccc1/C=N/Nc1cc(C)nc(N2CCOCC2)n1 | 13% | ?
CCOc1ccsc1C(=O)OC | -1% | -17%
CC(C)C[C@@H](NC(=O)OCC1c2ccccc2-c2ccccc21)C(=O)O | . | 2%
O=C(NN=C(Cc1ccccc1)Cc1ccccc1)c1ccc(F)cc1 | -2% | 3%
CC(NS(=O)(=O)c1ccccc1)C(=O)Nc1ccc2c(c1)OCCO2 (configuration not stated) | 2% | -3%
C=C(C)CSc1nc2sc3c(c2c(=O)n1-c1ccccc1)CCC(C)C3 (configuration not stated) | 16% | .
Cc1ccccc1CCN1CCCC(CN(C)C(=O)c2ccc3ncccc3c2)C1 (configuration not stated) | 6% | -4%
CCCc1cc(=O)[nH]c(SCC(=O)OCc2ccccc2)n1 | -2% | 10%[2.35 µM]
Cc1c(C(=O)NC(C)C)sc2ncn(CC(=O)N3CCC(C)CC3)c(=O)c12 | 5% | -11%
CCSc1nnc(NC(=O)NC(C)(C(F)(F)F)C(F)(F)F)s1 | -3% | -10%
CCOc1cc(C(C(=O)NCC2CCCO2)N(C(=O)Cn2nnc3ccccc32)c2ccc(OC)c(OC)c2)ccc1O (configuration not stated) | -3% | 0%
NC(=O)c1c(NC(=O)C(=O)N2CCOCC2)sc2c1CCCC2 | -7% | -4%
NS(=O)(=O)c1ccc(CNC(=O)c2ccc3c(c2)OCO3)cc1 | -7% | .
Cc1nc2nc(-c3ccco3)nn2c(C)c1Cl | -3% | 4%
CC(C)c1ccccc1NC(=O)COC(=O)c1ccc(Cl)c(S(=O)(=O)N2CCCCCC2)c1 | -16% | 26%
CCN1C(=O)[C@H]2[C@@H](c3ccc(-c4ccc(Cl)c(Cl)c4)c(OC)c3)N[C@@](Cc3ccccc3)(C(=O)OC)[C@H]2C1=O | 9% | 3%
COC(=O)C(CC(C)C)NC(=O)CNC(=O)c1ccccc1C (configuration not stated) | -14% | 7%
COc1ccc2nc(SC)c(C#N)cc2c1 | 12% | 6%
COc1ccc(C(=O)Nc2ccc(C3(C#N)CCCC3)cc2)cc1 | 1% | 15%
COc1cc(/C=C(\C#N)C(=O)NCC2CCCO2)ccc1OC(=O)c1ccco1 (configuration not stated) | 1% | .
O=c1cccccc1NCc1ccccc1 | -8% | -12%
COc1ccc(NS(=O)(=O)c2ccc(N3CCOCC3)c(NC(=O)c3ccco3)c2)cc1 | 9% | 6%
COc1ccc(S(=O)(=O)N2CCOC2CNC(=O)C(=O)NCc2ccccn2)cc1C (configuration not stated) | 4% | -6%
O=C(COc1ccc(S(=O)(=O)NC2CCCCC2)cc1)Nc1ccc2c(c1)OCCO2 | -17% | -4%
Cc1cc(C)nc(N/N=C/c2c(C)oc3ccccc23)n1 | 6% | -6%
CC(=O)N(CCCN(C)C)c1nc2ccc(C)cc2s1 | 1% | -17%
CCC(=O)N1CCc2cc(Br)cc(S(=O)(=O)NCCc3ccccc3)c21 | 2% | .
CCC1Oc2ccccc2N(CC(=O)NCCN2CCc3ccccc3C2)C1=O (configuration not stated) | -5% | 2%
CN1C(=O)c2ccc(NC(=O)c3cccc(N4C(=O)CCC4=O)c3)cc2C1=O | -5% | 7%
CC1CCCC(=NNC(=O)C2COc3ccccc3O2)C1 (configuration not stated) | 0% | .
CC(=O)Nc1ccc(S(=O)(=O)N2CCC(=O)Nc3ccccc32)cc1 | -4% | ?
CCOc1ccccc1C(=O)NCC(=O)OCC(=O)NCCc1ccc(S(N)(=O)=O)cc1 | 2% | 1%
CCN1CCc2c(sc(NC(=O)Nc3ccc(Cl)c(Cl)c3)c2C(N)=O)C1 | -8% | -12%
CN(C)CCCN(C(=O)c1ccc(S(=O)(=O)N2CCc3ccccc32)cc1)c1nc2ccc(Cl)cc2s1 | -5% | ?
COc1ccc(NC(=S)Nc2nc(CC(=O)Nc3ccccc3OC)cs2)cc1 | -23% | ?
CCOC(=O)C1=C(COC(=O)C2(C)CC2(Cl)Cl)NC(=O)NC1c1ccccc1 (configuration not stated) | 1% | -6%
Cc1ccccc1-n1c(=O)n(CCc2ccccc2)c(=O)c2[nH]cnc21 | 3% | -18%
COc1ccc(S(N)(=O)=O)cc1C(=O)OCC1CCCCC1 | -3% | -11%
O=C(NC1CCCC1)C(c1ccccc1F)N(C(=O)Cc1cccs1)c1ccc2c(c1)OCCO2 (configuration not stated) | 6% | .
CC(=O)Nc1ccc(S(=O)(=O)N(C)c2ccc(OCC(=O)OCC(=O)NCc3ccco3)cc2)cc1 | -8% | -7%
COc1ccc(N(CC(=O)NC2CCCC2)C(=O)CCC(=O)Nc2nc(C)cs2)cc1OC | 2% | -6%
CCOC(=O)Nc1sc(C)c(C)c1C(N)=O | 7% | 2%
CC(=O)c1sc(Nc2ccccn2)nc1C | 10% | 5%[2.35 µM]
COc1ccc(CNC(=O)CSCc2ccccc2Cl)cc1 | 5% | 23%
COc1ccc(S(=O)(=O)N2CC(C)N(C(=O)N(C)C)C2C(C)C)cc1 (configuration not stated) | 4% | -6%
CCCCCCCCNC(=O)CCNC(=O)c1ccc(C(C)(C)C)cc1 | -24% | .
c1ccc(-c2nnc3n2-c2ccccc2SC3)cc1 | -4% | 3%
O=Cc1ccc(Oc2ccc(F)cc2)nc1 | 2% | 5%
Cc1cc(NC(=O)C(=O)c2cn(C)c3ccccc23)no1 | -4% | -6%
Cc1nc2sc(C(c3cccs3)N3CCN(C(=O)c4ccco4)CC3)c(O)n2n1 (configuration not stated) | 18% | 1%
COc1ccc2c(C(F)(F)F)cc(=O)oc2c1C | -11% | 10%
O=C(c1ccc2c(c1)C(=O)N(Cc1ccco1)C2O)N1CCOCC1 (configuration not stated) | 15% | -1%
COc1cccc2c1cc1c(=O)n(CC(=O)N3CCN(c4cccc(C(F)(F)F)c4)CC3)nc(C)n12 | 41%[activator] | .
Cc1cccc(C(=O)Nc2nnc(S(=O)(=O)N3c4ccccc4CC3C)s2)c1 (configuration not stated) | -6% | .
Cc1sc2ncn(C(C)C(=O)OC3CCCCC3)c(=O)c2c1C (configuration not stated) | -3% | -10%
Cc1c(Cl)cccc1NC(=S)NCc1ccccc1Cl | -15% | -11%
Cc1ccc2nc(-c3ccccc3)cc(C(=O)N3CC(C)OC(C)C3)c2c1 (configuration not stated) | 1% | -5%
O=C(OCc1nc2ccccc2[nH]1)C12CC3CC(CC(C3)C1)C2 | -11% | 3%
COc1cccc(NC(=O)C2CCN(c3ncccn3)CC2)c1 | 0% | 17%
CCN(c1ccccc1)S(=O)(=O)c1cccc(C(=O)NCCOc2ccccc2OC)c1 | -10% | -13%

Carrying on:
SMILES | FEN1 inh | N370S GC mod
O=[N+]([O-])c1cccc(/C=N/Nc2nc(C(Cl)(Cl)Cl)nc3ccccc23)c1 | -9% | 8%
O=C(CSc1ccccc1)Nc1ccc(NC(=O)c2ccco2)cc1 | -6% | -5%
O=C(NCc1cccs1)c1ccc2c(c1)ncn2C1CCCC1 | -16% | 1%
CN(C)C=NC(=O)c1cc(C(=O)c2ccc(F)cc2)c[nH]1 | -2% | 7%
O=C(CSC1=Nc2ccccc2C2=NC(CC(=O)NC3CCCCC3)C(=O)N12)NCc1ccco1 (configuration not stated) | 12% | 11%
CCCOc1ccc(N2C(=O)CC(N3CCN(c4ccccc4OC)CC3)C2=O)cc1 (configuration not stated) | 15% | 4%
CCN1c2ccccc2-c2nc(SCC(=O)Nc3cc(F)ccc3F)ncc2S1(=O)=O | 1% | .
COCCCn1c(=N)c(C(=O)NC2CCCCC2)cc2c(=O)n3ccccc3nc21 | -1%&-12% | 15%
CC(=O)Nc1ccc(S(=O)(=O)NCC2(N3CCOCC3)CCCCC2)cc1 | 2% | -23%
Cn1c(=O)c2c(nc(CN3CCN(Cc4ccccc4)CC3)n2Cc2ccc(Cl)cc2)n(C)c1=O | -33% | 0%
Cc1cc(N2CCN(S(=O)(=O)Cc3ccccc3)CC2)n2ncnc2n1 | -2% | -1%
CN(C)C(=O)c1cn(N(C)c2ncc(C(F)(F)F)cc2Cl)c(=O)c2ccccc12 | 3% | 4%
Cc1ccc(CN2CCNC(=O)C2CC(=O)N(C)C2CCCCC2)cc1 (configuration not stated) | 2% | -1%
CCn1ccnc1CN1CCN(CC(C)C)C(CCO)C1 (configuration not stated) | 7% | 1%
Cc1ccccc1-n1c(SCC(=O)N/N=C/c2c(C)nn(-c3ccccc3)c2C)nc2ccccc2c1=O | 0% | 5%
O=NN(CCCl)C(=O)NCCCl | 11% | 2%&1%&19%
CC(=O)Nc1ccc2c(c1)CN(c1cc(C)ccc1C)CO2 | -3% | -8%
CC(=O)Nc1c2c(nn1-c1ccc(C)cc1C)CSC2 | 1% | -16%
Cc1ccc2c(=O)cc(C(=O)Nc3ccc(S(=O)(=O)Nc4onc(C)c4C)cc3)oc2c1 | ? | -6%
CCOC(=O)C1CCN(Cc2ccc(OCc3ccccc3)c(OC)c2)CC1 | 1% | -2%
COCCOC(=O)c1sc(=S)n(CCOC)c1N | -3% | -1%
CC(NS(=O)(=O)c1ccccc1)C(c1cccs1)N1CCN(c2ccccc2)CC1 (configuration not stated) | -9% | 1%
COc1ccc(C(=O)N2CCCc3ccccc32)cc1Br | -18% | -1%
CCOc1cccc(OCCCCN2CCOCC2)c1 | -3% | -3%
O=C(Nc1cc(-c2nc3ncccc3o2)ccc1Cl)c1ccc([N+](=O)[O-])o1 | -18% | -16%
CC(=O)c1cccc(NC(=O)CN2C(=O)CC(c3ccc(C)cc3C)=Nc3ccccc32)c1 | -9% | .
COc1cc(OC)cc(C(=O)N[C@H](C(=O)Nc2nc3c(s2)CCCC3)C(C)C)c1 | 0% | 15%
COc1cc(NC(=O)CSc2nccc(C)n2)c(C)cc1[N+](=O)[O-] | -7% | -11%
O=C(CSc1nnc(CCCN2C(=O)c3cccc4cccc(c34)C2=O)n1-c1ccccc1)N1CCCCC1 | 0% | 0%
Cc1cc(C)n2[nH]c(=O)c(N=Nc3ccc(S(N)(=O)=O)cc3)c2n1 | -2% | -15%

Part of the list above in order of heavy-atom count, descending:
SMILES | FEN1 inh | N370S GC mod
O=C(CSc1nnc(CCCN2C(=O)c3cccc4cccc(c34)C2=O)n1-c1ccccc1)N1CCCCC1 | 0% | 0%
Cc1ccccc1-n1c(SCC(=O)N/N=C/c2c(C)nn(-c3ccccc3)c2C)nc2ccccc2c1=O | 0% | 5%
CC(=O)c1cccc(NC(=O)CN2C(=O)CC(c3ccc(C)cc3C)=Nc3ccccc32)c1 | -9% | .
Cc1ccc2c(=O)cc(C(=O)Nc3ccc(S(=O)(=O)Nc4onc(C)c4C)cc3)oc2c1 | ? | -6%
CC(NS(=O)(=O)c1ccccc1)C(c1cccs1)N1CCN(c2ccccc2)CC1 (configuration not stated) | -9% | 1%
COc1cc(OC)cc(C(=O)N[C@H](C(=O)Nc2nc3c(s2)CCCC3)C(C)C)c1 | 0% | 15%
CCOC(=O)C1CCN(Cc2ccc(OCc3ccccc3)c(OC)c2)CC1 | 1% | -2%
O=C(Nc1cc(-c2nc3ncccc3o2)ccc1Cl)c1ccc([N+](=O)[O-])o1 | -18% | -16%
Cc1ccc(CN2CCNC(=O)C2CC(=O)N(C)C2CCCCC2)cc1 (configuration not stated) | 2% | -1%
COc1cc(NC(=O)CSc2nccc(C)n2)c(C)cc1[N+](=O)[O-] | -7% | -11%
CC(=O)Nc1ccc2c(c1)CN(c1cc(C)ccc1C)CO2 | -3% | -8%
COc1ccc(C(=O)N2CCCc3ccccc32)cc1Br | -18% | -1%
CCOc1cccc(OCCCCN2CCOCC2)c1 | -3% | -3%
COCCOC(=O)c1sc(=S)n(CCOC)c1N | -3% | -1%
O=NN(CCCl)C(=O)NCCCl | 11% | 2%&1%&19%

Retrieved one by one from the list above, 2 records:
SMILES | FEN1 inh | N370S GC mod
O=C(c1ccc2c(c1)C(=O)N(Cc1ccco1)C2O)N1CCOCC1 (configuration not stated) | 15% | -1%
CC1CCCC(=NNC(=O)C2COc3ccccc3O2)C1 (configuration not stated) | 0% | .

Next part
SMILES | FEN1 inh | N370S GC mod
O=C(Nc1ccc(NC(=O)c2cccs2)cc1)c1ccc(Br)cc1 | 17% | .
Cc1cc2c(cc1S(=O)(=O)CCC(=O)NC1CCC(C)CC1)OCC(=O)N2 (configuration not stated) | -1%&-4% | 0%
COc1ccc(-n2c(SCc3nc(-c4ccc(C)cc4)no3)nnc2-c2ccccc2)cc1 | -10% | .
CC(C)CNc1c(N)c(=O)oc2ccccc12 | 16% | 8%
Cc1cc(C)n(CCNS(=O)(=O)c2ccccc2)n1 | 1% | -11%
C#CCNC(=O)C1=C[C@H](C2CCCCC2)[C@@H](CCCO)[C@H](OCC)O1 | 11% | 12%
Cc1ccc(C(=O)Oc2coc(CSc3nnc(NC(=O)C4CC4)s3)cc2=O)cc1 | 6% | 6%
Cc1nn(Cc2ccc(Cl)c(Cl)c2)c(C)c1NC(=O)c1cc(C2CC2)on1 | -14% | 5%
Cc1cccc(N2CCN(CCCNC(=O)c3ccc(NC(=O)C4=CSCCO4)cc3)CC2C)c1 (configuration not stated) | -1% | -27%
COC(=O)C(Cc1ccccc1)NS(=O)(=O)c1ccc(F)cc1Br (configuration not stated) | 2%&-24%&-15% | -10%&-3%&14%
Cc1ccccc1C(=O)Nc1nncs1 | 0% | 5%
CCOC(=O)c1cc(C(=O)c2cc(F)ccc2O)coc1=N | 14% | -1%
O[C@@H](c1cc(C(F)(F)F)nc2c(C(F)(F)F)cccc12)[C@H]1CCCCN1 | -6%&7% | -22%
Cc1cc(C)cc(C(=O)Nc2nnc(SCC(=O)N3CCCc4ccccc43)s2)c1 | -17% | 10%
CCOc1cc(C=O)cc(Br)c1OCC(=O)NCCc1ccccc1 | -14% | 5%
Clc1cccc(-n2ncc3c(NCCCc4ccccc4)ncnc32)c1 | -23% | .
O=C1CC(c2ccc(S(=O)(=O)N3CCCCC3)cc2)CN1 (configuration not stated) | -15% | 2%
